# FGF22 binding: shifts melting point of recombinant human FGF22 | Q9HCT0 | recombinant FGF22 thermal shift, SYPRO orange fluorescence; percent of sucrose octasulfate shift, DMSO zero | 1.5% of 340,000 active | calls only at 9.99 µM;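 active = melting point raised past a set limit in the mean and every replicate; inconclusive = no clear call; three in four hits are not shown here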
# UCH37 inh: blocks the human deubiquitinase UCH37; 0.33% of 330,000 active; AID 588478; Q9Y5K5; inhibition, % (test concentration not listed); purified proteasome/UCH37, Ub-AMC cleavage fluorescence;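 active = mean of two replicates above 20%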;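 note: 0% = compound-free wells with enzyme and 100% = wells lacking proteasome; stock transfer was 100 nL into about 20 µL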
#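 Schedule: 30 min plus 25 min, room temperature / Material: human UCH37 within purified proteasomes / Technique: AMC fluorescence intensity at 355/460 nm / Buffer or medium: pH 7.4 Tris-HCl (50 mM) with ovalbumin, ATP-MgCl2, DTT / Controls: wells without proteasome as full block, compound-free enzyme plus substrate as uninhibited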
# HNF4A DNA FP: change in binding of human HNF4 alpha to DNA | P41235 | AID 1224865 | 0.3% of 360,000 active | activity change, % at 10 µM | HNF4a-FITC DNA binding, fluorescence polarization, 1 h; in the data active = activity change above about 30%, passing the limit was not always enough;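 note: controls were the assay level and a saturating level of protein; the project sought stronger binding though the title names inhibitors; some compounds called inactive have numbers as strong as hits; positive values seem to mean higher polarization but the record does not say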
# Target sequence (P41235 whole entry, looked up): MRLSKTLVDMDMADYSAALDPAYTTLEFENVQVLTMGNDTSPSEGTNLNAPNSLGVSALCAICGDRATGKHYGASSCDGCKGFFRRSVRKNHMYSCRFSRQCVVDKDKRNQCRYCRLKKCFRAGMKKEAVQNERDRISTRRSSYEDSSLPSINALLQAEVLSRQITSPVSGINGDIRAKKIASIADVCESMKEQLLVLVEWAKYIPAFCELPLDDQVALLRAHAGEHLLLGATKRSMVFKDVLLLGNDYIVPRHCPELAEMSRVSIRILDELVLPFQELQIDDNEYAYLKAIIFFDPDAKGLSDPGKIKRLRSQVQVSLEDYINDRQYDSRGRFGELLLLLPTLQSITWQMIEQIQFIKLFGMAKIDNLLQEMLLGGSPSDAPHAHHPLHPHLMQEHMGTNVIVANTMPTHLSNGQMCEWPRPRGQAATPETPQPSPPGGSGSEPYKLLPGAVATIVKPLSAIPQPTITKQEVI
# Vif TR-FRET: inhibitors of Vif binding to APOBEC3G peptide, primary screen, biochemical, TR-FRET, GST-Vif 1-94, biotin-A3G peptide, dose response retest (AID 1117319); TR-FRET GST-Vif / biotin-A3G peptide binding; higher % means a stronger effect; test concentration not given here; strong numbers were not always called active; inhibition, %; hits with a dose series show IC50 in µM; 0.57% of 260,000 active;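 active = above the screen mean plus three standard deviations and confirmed in dose response; inconclusive = results disagree or hit not tested in dose response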;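 note: Vif residues 1-94 fused to GST binding biotinylated APOBEC3G peptide 110-148; 0% = full assay without inhibitor and 100% = GST in place of GST-Vif; retest series ran down from 100 µM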
# E coli growth: blocks Escherichia coli growth | OD600, 23 h; hits give low values | OD600 absorbance (no concentration beside the values) | 0.21% of 330,000 active;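 active = OD600 absorbance below the run mean of sample wells minus 3.6 SD, in any replicate, cut at about 0.56 in these data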;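 note: stock transfer was 300 nL into about 60 µL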
# MLL AF4-AF9 inh: blocks AF4 peptide binding to human AF9; P42568; AlphaScreen, biotin-AF4 peptide binding to FLAG-AF9; inhibition, % at 10 µM; 0.47% of 350,000 active;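 active = every replicate reaching a set inhibition limit, whatever the replicate mean, cut at about 25% in these data; inconclusive = mean inhibition reaches that limit but some replicates miss it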;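 note: 0% = plate neutral control median and 100% = total signal loss; the record names both 10 and 1 µM as test concentration; the first replicate is given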
# Target sequence (P42568 whole entry, looked up): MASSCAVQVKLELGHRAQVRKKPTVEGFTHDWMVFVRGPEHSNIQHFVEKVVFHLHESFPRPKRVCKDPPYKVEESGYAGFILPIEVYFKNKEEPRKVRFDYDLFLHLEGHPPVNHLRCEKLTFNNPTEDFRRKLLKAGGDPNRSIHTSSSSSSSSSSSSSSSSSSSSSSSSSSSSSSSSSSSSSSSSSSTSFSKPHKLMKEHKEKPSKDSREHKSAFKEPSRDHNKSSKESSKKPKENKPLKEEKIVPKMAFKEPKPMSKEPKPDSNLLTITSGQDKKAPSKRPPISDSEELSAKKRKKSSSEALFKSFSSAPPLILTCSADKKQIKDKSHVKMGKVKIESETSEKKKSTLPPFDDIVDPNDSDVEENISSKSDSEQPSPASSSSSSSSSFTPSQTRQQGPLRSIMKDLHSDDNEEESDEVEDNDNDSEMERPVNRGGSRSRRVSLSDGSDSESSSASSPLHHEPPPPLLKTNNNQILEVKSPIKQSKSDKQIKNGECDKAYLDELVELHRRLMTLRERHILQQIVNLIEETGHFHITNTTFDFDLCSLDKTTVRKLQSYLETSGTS
# RanGTP-Imp inh: inhibitors of RanGTP-importin-beta interaction, primary screen, biochemical, FRET, CFP-Ran, YFP-importin-beta, homogeneous; cell-free CFP-Ran/YFP-importin-beta FRET ratio; 1.1% of 300,000 active; inhibition, % (no concentration beside the values);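 active = most replicates above 15%; inconclusive = exactly half above 15%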;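 note: 0% = DMSO wells and 100% = Ran loaded with GDP instead of GTP; wells of about 40 µL received 100 nL stock; the first replicate is given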
# Starred values were filed as active, the others as inactive; i = inactive; ? = inconclusive; . = no result given; & = joins results of further samples. Some of the compounds tested, so the mix of outcomes need not match the whole.
SMILES,FGF22 binding,UCH37 inh,HNF4A DNA FP,Vif TR-FRET,E coli growth,MLL AF4-AF9 inh,RanGTP-Imp inh
CC(Oc1ccccc1Cl)C(=O)N1CCOCC1 (centres undefined),i,1.0,0.4,-1%,0.68,4.6,-2.1
O=C(COc1ccc([N+](=O)[O-])cc1)NN=C1CCCC1,.,8.1,-1.2,3%,0.7,.,4.3
CCN1CCc2nc(NC(=O)c3cc(F)c(F)cc3Cl)sc2C1,i,0.6,12,.,0.67,2.3,20*
O=C(CCCC(=O)N(CC(=O)NC1CCCCC1)c1cccc(F)c1)Nc1ccccn1,i,1.8,-1.6,.,0.71,3.2,3.3
CCN(CC)S(=O)(=O)c1ccc(NS(=O)(=O)c2cccs2)cc1,i,-0.5,-0.3,-9%,0.69,-0.6,2.3
O=S(=O)(c1ccc(N2CCC(c3ccc(Cl)cc3)=N2)cc1)N(CCO)CCO,.,i,-2.3,-4%,0.76,.,?
COc1ccc2c(c1)cc1n2CCN=C1NN,.,2.3,3.9,18%,0.71,.,-2.8
CCc1ccc(N=c2c([N+](=O)[O-])nn(-c3ccc4c(c3)OCCO4)n2O)cc1,i,3.3,-0.1,0%,0.67,0.6,-1.9
O=C(N/N=C/c1cc(O)ccc1Br)c1cccnc1,i,.,1.6,.,.,3.4,7.7
O=C(NCc1nc2ccccc2[nH]1)C1=C[C@@H](C2CCCCC2)C[C@@H](OCc2ccc(CO)cc2)O1,i,-3.2,-3.5,.,0.82,0.1&-5.2,2.5
COc1cc(/C=N/N2CCOCC2)ccc1OCc1ccccc1,i,.,-0.3,-8%,.,13,0.7
CCOC(=O)N1CCN(CCC(=O)Nc2cccc(Br)c2)CC1,.,1.2&0.0,0.8&1.9,-1%&-1%,0.67&0.69,.,0.1&0.9
Cc1ccc(N2CC(C(=O)Nc3c4c(nn3C(C)(C)C)CS(=O)(=O)C4)CC2=O)cc1C (centres undefined),i,-0.6,-0.2,22%,0.64,-2.3,3.0
CC(=O)c1cccc(OCC(=O)c2cc(C)n(-c3cc(C)on3)c2C)c1,.,0.1,1.4,16%,0.7,.,1.3
CN(C)C=NC(=O)c1cc(C(=O)c2ccc(F)cc2)c[nH]1,i,2.4,-1.0,12%,0.68,-0.3,-2.5
COC(=O)c1ccc2nc(-c3ccc(C)cc3)c(Cc3cccc(Cl)c3)n2c1,i,.,2.0,.,.,-0.5,.
CC(CNC(=O)Cn1cnc2c(OCc3ccccc3)ncnc21)c1ccccc1 (centres undefined),i,0.9,-4.0,9%,0.72,-2.3,.
CCOC(=O)N1CCN(CCC(=O)Nc2ccccc2OC)CC1,.,1.1,-4.4,13%,0.76,.,5.1
O=C1NC(=S)NC1=Cc1ccco1,i,11,-5.4,11µM*,0.69,-1.3,.
O=C(NCCCN1CCOCC1)c1ccc(CS(=O)(=O)Cc2ccc(Cl)cc2)o1,.,1.5,-2.8,23%&12%,0.69,.,1.0
Cc1ccc(S(=O)(=O)N2CCC[C@H]2C(=O)OCC(=O)N2CCc3ccccc32)cc1,i,1.6,-3.3,.,0.72,1.0,.
CCCNC(=O)C1(C)CCN(C(=O)c2ccc(C)c(F)c2)C1 (centres undefined),i,.,4.6,.,.,-0.7,.
CCN(CC)c1ccc(/C=N/Nc2nc(C)cc(C)n2)cc1,i,.,-1.6,4%,.,11,3.4
CCOC(=O)CSc1nc2ccccc2c(=O)n1CCCCCC(=O)NCc1ccco1,.,-1.1,-1.6,-14%&-6%,0.74,.,0.1
COc1cc(C(=O)N2CCN(c3ccccc3O)CC2)ccc1OCC(=O)N1CCOCC1,i,-2.8,-1.9,-3%,0.69,-0.6,.
COC(=O)c1cc2ccc(OC)c(OC)c2c(=O)s1,.,1.7,-2.3,8%,0.68,.,-3.8
CN(C(=O)c1cc(COc2c(F)cccc2F)on1)C1CCOC1 (centres undefined),i,-2.1,-1.4,.,0.71,-2.7,3.2
Cc1ccc(C2CC(=O)NC(SCc3ccccc3)=C2C#N)cc1 (centres undefined),.,6.0,1.0,-1%,0.72,.,0.8
O=C1CC(c2ccc3c(c2)OCCO3)Oc2ccc([N+](=O)[O-])cc21 (centres undefined),i,4.3,0.2,-10%,0.67,-1.0,-1.9
Cc1ccc(S(=O)(=O)Oc2ccc(C(c3c(C)[nH][nH]c3=O)c3c(C)[nH][nH]c3=O)cc2)cc1,i,5.5,-0.3,0%,0.7,-29,1.5
c1ccc(-c2cncn2-c2ccccc2)cc1,i,0.7,0.9,.,0.63,1.8,2.9
Cc1nc2nc[nH]n2c(=O)c1NS(=O)(=O)c1ccc([N+](=O)[O-])cc1,.,4.6,2.9,?,0.72,-3.0,-5.4
NS(=O)(=O)c1ccc(CCNC(=O)C2CCCCN2S(=O)(=O)c2ccccc2)cc1 (centres undefined),.,3.0,-2.5,-1%,0.67,.,-0.6
CCn1c(C(C)NC(=O)c2cccc(C)c2)n[nH]c1=S (centres undefined),i,1.9,3.2,-5%,0.63,-1.4,-1.0
O=c1[nH]c2cnn(-c3ccccc3)c2c(=O)n1O,i,.,-7.2,.,.,-5.9,.
COc1ccc(C2(C(=O)O)CCCC2)cc1,.,2.7,2.7,1%,0.66,.,1.7
O=C(c1ccco1)N1CCN(C2CN(Cc3cn(Cc4ccccc4C(F)(F)F)nn3)S(=O)(=O)C2)CC1 (centres undefined),i,.,-4.4,.,.,-2.5,.
O=C1CC(SC(=Nc2ccccc2)Nc2ccccc2)C(=O)N1c1ccc(Cl)cc1 (centres undefined),.,0.3,-1.1,66%,0.77,.,0.2
NC(=O)CC(NC(=O)c1ccccc1)C(=O)O (centres undefined),i,1.4,-0.3,.,0.68,-7.4,2.7
O=c1cc[nH]c2cc(C(F)(F)F)ccc12,i,1.4,23,1%,0.68,1.5,-3.1
CC1CCN(c2ccc3nnc(CCC(=O)N4CCN(c5ccc(F)cc5)CC4)n3n2)CC1,i,3.5,-0.7,-7%,0.69,2.9,0.7
CCOc1ccccc1/C=N/Nc1nc2c(N)ncnc2n1[C@H]1O[C@@H](CO)[C@H](O)[C@@H]1O,i,.,-1.3,.,.,-2.8,?
COc1ccccc1NC(=O)C1=C(C)NC(=O)NC1c1cccs1 (centres undefined),i,3.7,2.1,12%,0.6,-0.1,-3.5
Cc1cc(C)cc(NS(=O)(=O)c2ccc3c(c2)c(=O)n(C)c(=O)n3C)c1,i,6.4,4.1,0%,0.69,3.4,-0.5
CC(=O)N/C(=N/c1nc(C)cc(C)n1)Nc1cccc(C)c1,i,6.7,0.8,.,0.67,-3.0,7.1
Cc1[nH]nc2c1C(c1ccccc1F)CC(=O)N2 (centres undefined),.,-0.8,2.6,?,0.71,.,1.4
Cc1cccc(Nc2n[nH]c(C)c2[N+](=O)[O-])c1,.,4.3,-0.5,-2%,0.64,.,-1.3
c1ccc(C2OCC3(CO2)COC(c2ccccc2)OC3)cc1 (centres undefined),.,2.8,-3.2,-1%,0.66,.,-2.4
COc1cccc(C(=O)N2CCC[C@H]2C(=O)N2CCC[C@H]2C(=O)NCc2ccncc2)c1,i,.,2.8,.,.,-0.6,.
O=c1c2ccccc2nc(-c2ccc(F)cc2)n1NCc1ccccc1O,i,3.0,4.4,-7%,0.7,-1.1,0.7
CCc1ccccc1NC(=O)CNC(=O)CNC(=O)C1CCCCC1,i,3.4,-0.2,0%,0.61,-0.1,.
CCc1nc2ccccc2n1CC(O)COc1ccc(NC(C)=O)cc1 (centres undefined),.,4.1,-0.6,.,0.72,.,-1.5
CC(=O)Nc1ccc(S(=O)(=O)NC2CC3CCC2C3)cc1 (centres undefined),i,4.2,2.0,.,0.62,-1.3,-1.5
COc1cc(OC)c(C(=O)O/N=C(\N)c2cccc(C)c2)cc1OC,i,0.1,-1.4,-2%,0.68,0.5,5.7
c1c(C2CCCCC2)n[nH]c1CN1CCCCC1,.,-0.7,-1.2,9%,0.66,.,0.5
CCN1CCN(Cc2ccc(NC(=O)Nc3ccc(SC)cc3)cc2)CC1,.,1.4,2.6,-1%,0.67,.,-1.4
Cn1c(-c2ccc(F)cc2)cnc1NCc1ccccc1,.,0.8,3.8,?,0.64,.,6.1
CCOC(=O)C1C(=O)C=C(c2ccc(C)cc2)CC1c1cccc([N+](=O)[O-])c1 (centres undefined),i,3.2,-0.5,.,0.71,7.5,-1.9
COc1ccc(NC(=O)c2cc(-c3ccccc3O)n[nH]2)cc1Cl,i,0.2,4.9,-3%,0.71,-1.2,?
CC(C)NC(=O)C1C(c2ccccc2)=Nc2ccccc2N1C(=O)c1ccc(C(F)(F)F)cc1 (centres undefined),i,.,-0.9,.,.,6.8,.

# 5 entries from above, with values ahead of the structure.
FGF22 binding	UCH37 inh	HNF4A DNA FP	Vif TR-FRET	E coli growth	MLL AF4-AF9 inh	RanGTP-Imp inh	SMILES
i	4.2	2.0	.	0.62	-1.3	-1.5	CC(=O)Nc1ccc(S(=O)(=O)NC2CC3CCC2C3)cc1 (centres undefined)
i	.	2.8	.	.	-0.6	.	COc1cccc(C(=O)N2CCC[C@H]2C(=O)N2CCC[C@H]2C(=O)NCc2ccncc2)c1
i	5.5	-0.3	0%	0.7	-29	1.5	Cc1ccc(S(=O)(=O)Oc2ccc(C(c3c(C)[nH][nH]c3=O)c3c(C)[nH][nH]c3=O)cc2)cc1
.	-1.1	-1.6	-14%&-6%	0.74	.	0.1	CCOC(=O)CSc1nc2ccccc2c(=O)n1CCCCCC(=O)NCc1ccco1
i	3.2	-0.5	.	0.71	7.5	-1.9	CCOC(=O)C1C(=O)C=C(c2ccc(C)cc2)CC1c1cccc([N+](=O)[O-])c1 (centres undefined)

# Going on with the list:
SMILES,FGF22 binding,UCH37 inh,HNF4A DNA FP,Vif TR-FRET,E coli growth,MLL AF4-AF9 inh,RanGTP-Imp inh
CC(C(=O)Nc1ccc2c(c1)OCCO2)n1nnc(-c2ccccc2)n1 (centres undefined),i,0.6,0.6,1%,0.71,-4.4,-2.0
C=CC12C=CC=CN1C(C(=O)OC)=C(C(=O)OC)C(C(=O)OC)=C2C(=O)OC (centres undefined),.,5.6,-0.9,-2%,0.65,.,2.1
COC(=O)[C@]1(Cc2ccccc2)N[C@H](CN(C)S(=O)(=O)c2ccc(OC)cc2)[C@@H]2C(=O)N(C)C(=O)[C@@H]21,i,.,4.7,.,.,-1.6,.
CCOC(=O)c1c(NC(=O)CSc2nncs2)sc(C)c1C,.,4.4,2.1,72%,0.76,.,-3.9
Cc1nc(-c2c(-c3ccc(O)cc3O)noc2C(F)(F)F)cs1,.,-6.8,-0.8,0%,0.76,.,-0.4
COc1ccccc1NC(=O)c1cc(C(=O)O)ccc1C(=O)O,.,4.9,-1.5,0%,0.71,.,2.8
O=C(C[n+]1cn(C(F)F)c2ccccc21)c1ccc(OC(F)F)cc1,i,3.2,1.9,13%,0.71,-1.5,-0.1
Cc1ccccc1CN1C(=O)c2ccccc2C1c1nnnn1-c1ccc2c(c1)OCCO2 (centres undefined),i,.,-1.4,.,.,2.8,.
O=C(NNC(=O)C1CCN(Cc2cccc(F)c2)CC1)c1cccc(Cl)c1,.,-4.3,0.8,-1%,0.76,.,6.9
CCOC(=O)c1c(NC(=S)Nc2ccccc2)sc2c1CCN(C)C2,.,-0.2,29,?,0.75,.,70*
CCCCN(C(=O)C1CC1)C1CCS(=O)(=O)C1 (centres undefined),i,2.3,-0.4,1%,0.63,-0.3,?
Cc1ncc([N+](=O)[O-])n1CC(O)CCl (centres undefined),i,4.4,3.2,31%,0.69,-3.9,1.6
O=S(=O)(Cc1ccccc1Cl)N1CCCC1,i,-1.9,-1.1,-4%,0.7,-0.4,0.7
CCCCCN=CC1=C(O)CC(c2ccccc2)CC1=O (centres undefined),i,-0.3,-1.6,-14%,0.69,-1.1,0.8

# Assay outcomes as filed in PubChem.
